# HNF4A DNA FP: change in binding of human HNF4A to DNA, primary screen, biochemical, fluorescence polarization, FITC-DNA; 360,000 tested, 0.3% active; activity change, % at 10 µM; Hepatocyte nuclear factor 4-alpha (Homo sapiens), P41235; 1 h; in the data active = activity change above about 30%, passing the limit was not always enough;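 note: controls were the assay level and a saturating level of protein; the project sought stronger binding though the title names inhibitors; some compounds called inactive have numbers as strong as hits; positive values seem to mean higher polarization but the record does not say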
# rRNA inh HTS: reduced GFP signal of wild-type E. coli, primary screen, bacterial rRNA inhibitor project, GFP/RFP fluorescence, OD600, single point | 350,000 tested, 1.6% active | E. coli WT GFP vs humanized-ribosome RFP mutants, 24 h; active compounds read low; DMSO median 0, no signal -100 | GFP signal change (wild-type ribosome), % (no concentration beside the values);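 active = significant combined selectivity score with lowered wild-type GFP, culture density cut under 30%, mutant RFP and density less affected; inactive = any of these conditions unmet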; note: one replicate is shown; some compounds called inactive have numbers as strong as hits
# AF4-AF9 inh: inhibitors of AF4 peptide binding to AF9, primary screen, biochemical, AlphaScreen, biotin-AF4 peptide, FLAG-AF9, single point | Protein AF-9 (Homo sapiens), P42568 | inhibition, % at 10 µM | 350,000 tested, 0.47% active;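 active = every replicate reaching a set inhibition limit, whatever the replicate mean, cut at about 25% in these data; inconclusive = mean inhibition reaches that limit but some replicates miss it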;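 note: 0% = plate neutral control median and 100% = total signal loss; the record names both 10 and 1 µM as test concentration; the first replicate is given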
# Target sequence (P42568 whole entry, looked up): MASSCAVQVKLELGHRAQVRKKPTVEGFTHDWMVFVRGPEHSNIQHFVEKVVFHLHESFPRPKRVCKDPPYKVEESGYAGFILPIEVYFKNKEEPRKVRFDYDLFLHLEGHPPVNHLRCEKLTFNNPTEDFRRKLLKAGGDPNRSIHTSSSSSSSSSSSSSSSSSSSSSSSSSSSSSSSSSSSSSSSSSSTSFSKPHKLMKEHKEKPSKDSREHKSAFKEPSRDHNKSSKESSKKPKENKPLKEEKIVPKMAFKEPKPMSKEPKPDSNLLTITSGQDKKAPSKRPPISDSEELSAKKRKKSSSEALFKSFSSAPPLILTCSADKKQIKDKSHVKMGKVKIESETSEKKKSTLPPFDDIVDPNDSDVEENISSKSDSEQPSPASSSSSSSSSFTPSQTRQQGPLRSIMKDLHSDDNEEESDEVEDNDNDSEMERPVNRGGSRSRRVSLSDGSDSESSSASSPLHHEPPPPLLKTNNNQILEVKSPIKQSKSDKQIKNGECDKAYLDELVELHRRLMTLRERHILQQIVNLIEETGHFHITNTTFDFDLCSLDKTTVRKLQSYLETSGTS
# FGF22 binding: binders of human FGF22 protein, primary screen, FGF22 synaptogenesis inhibitor project, biophysical, thermal shift, single point; 340,000 tested, 1.5% active; calls only at 9.99 µM; recombinant FGF22 thermal shift, SYPRO orange fluorescence; percent of sucrose octasulfate shift, DMSO zero;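 active = melting point raised past a set limit in the mean and every replicate; inconclusive = no clear call; three in four hits are not shown here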
# Target sequence (Q9HCT0 whole entry, looked up): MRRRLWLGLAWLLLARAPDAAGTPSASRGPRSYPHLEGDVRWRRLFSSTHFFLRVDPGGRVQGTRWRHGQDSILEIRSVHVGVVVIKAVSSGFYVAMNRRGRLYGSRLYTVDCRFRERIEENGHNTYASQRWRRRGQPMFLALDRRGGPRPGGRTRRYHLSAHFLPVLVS
# Vif TR-FRET: inhibitors of Vif binding to APOBEC3G peptide, primary screen, biochemical, TR-FRET, GST-Vif 1-94, biotin-A3G peptide, dose response retest (AID 1117319). Virion infectivity factor (Human immunodeficiency virus type 1 group M subtype B (isolate …. 260,000 tested, 0.57% active. inhibition, %, or IC50 in µM where a hit was titrated. TR-FRET GST-Vif / biotin-A3G peptide binding; higher % means a stronger effect; test concentration not given here; strong numbers were not always called active;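 active = above the screen mean plus three standard deviations and confirmed in dose response; inconclusive = results disagree or hit not tested in dose response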;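 note: Vif residues 1-94 fused to GST binding biotinylated APOBEC3G peptide 110-148; 0% = full assay without inhibitor and 100% = GST in place of GST-Vif; retest series ran down from 100 µM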
# Ecoli growth: E. coli growth inhibition, primary screen, OD600 | 330,000 tested, 0.21% active | OD600 absorbance (test concentration not listed) | Escherichia coli growth, 23 h; active compounds read low;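 active = OD600 absorbance below the run mean of sample wells minus 3.6 SD, in any replicate, cut at about 0.56 in these data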;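 note: stock transfer was 300 nL into about 60 µL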
# ALR H2O2 inh: inhibitors of human ALR sulfhydryl oxidase, primary screen, biochemical, H2O2 detection, HRP-luminol luminescence, single point. AID 485317, 2010. 290,000 tested, 3.8% active. inhibition, % (concentration not given with the values). purified ALR, DTT oxidation;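 active = mean and each replicate at 75% or more; inconclusive = only one of the two met; inactive = neither met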;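 note: stock transfer was 7.5 nL into about 7.5 µL; 0% = neutral wells and 100% = wells with inactivated enzyme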
# Target sequence (P55789 whole entry, looked up): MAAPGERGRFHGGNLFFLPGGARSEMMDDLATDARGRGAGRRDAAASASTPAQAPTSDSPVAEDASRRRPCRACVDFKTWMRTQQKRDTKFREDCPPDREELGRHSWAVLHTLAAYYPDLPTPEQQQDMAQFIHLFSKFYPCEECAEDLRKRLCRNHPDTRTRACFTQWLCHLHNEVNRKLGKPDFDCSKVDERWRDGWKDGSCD
# rRNA inh HTS OD600: further read-out of rRNA inh HTS, marked with its call; OD600 change, %; measured here: OD600 growth;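 optical density of the mix in the first replicate; 0 = DMSO median and -100 = no signal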
# rRNA inh HTS RFP: second read-out of rRNA inh HTS, no call of its own (marks repeat the call); RFP signal change, %; measured here: RFP humanized mutant strains;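 first replicate; 0 = DMSO median and -100 = no signal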
# * marks the source's active call; other numbers are inactive results; i = inactive; ? = inconclusive; · = no result given. This is a subset; rates above refer to the full screens.
SMILES,HNF4A DNA FP,rRNA inh HTS,rRNA inh HTS OD600,rRNA inh HTS RFP,AF4-AF9 inh,FGF22 binding,Vif TR-FRET,Ecoli growth,ALR H2O2 inh
CCOCCCNC(=O)CN1C(=O)CSc2ccc(S(=O)(=O)N3CCOCC3)cc21,-3.0,4,6,0.6,-2.3,i,2%,0.7,0
COc1ccc2oc(C(=O)OCC(=O)N(C)C3CCS(=O)(=O)C3)c(C)c2c1 (centres undefined),3.3,-1,-9,2.6,0.6,i,1%,0.7,-5
O=C(c1cc(S(=O)(=O)N2CCOCC2)ccc1Cl)N1CCOCC1,-3.5,14,8,1.6,-1.0,i,-5%,0.7,-5
c1ccc(NC2=NCCCCS2)cc1,3.8,·,·,·,·,·,24%,0.72,·
CCCCn1c(=O)[nH]c(=O)c2c1nc(-c1ccncc1)n2CCOC,5.7,-1,3,-4.9,·,·,1%,0.71,-5
CCOC(=O)CNC(=O)CNC(=O)c1ccc(OCC(C)C)cc1,-1.3,·,·,·,·,·,1%,0.69,-4
O=C(O)C1CCC(N2C(=O)C3CCCCC3C2=O)CC1 (centres undefined),0.3,·,·,·,·,·,19%,0.69,-11
O=C(c1ccccc1-c1ccccc1)N1CCCCC1,2.4,-3,-9,0.5,-1.6,i,·,0.66,-3
COCCn1c(-c2ccc(-c3ccccc3Cl)o2)nc2c1c(=O)[nH]c(=O)n2CC(C)C,0.9,·,·,·,·,·,15%,0.7,1
CCCn1nc(NC(=O)c2cccs2)c2cc3cccc(C)c3nc21,-1.2,-10,-3,2.4,-25,i,10%,0.63,2
Cc1ccc(NC(=O)c2cc(-c3ccco3)on2)cc1,4.8,·,·,·,·,·,2%,0.64,3
CCC(C)NC(=O)C1(NC(=O)Nc2ccccc2)CCCCC1 (centres undefined),-5.5,24,19,3.5,-0.8,i,·,0.67,1
O=C(c1cnn(-c2ccccc2)c1-n1cccc1)N1CCN(C2CCCCC2)CC1,-0.7,3,6,0.1,9.7,i,-1%,0.78,0
Cc1cc(NC(=O)Nc2ccc(Cl)cc2)no1,0.5,-8,-3,-2.7,4.1,i,?,0.68,-5
Cc1ccc(NC(=O)Cn2nnc(-c3ccccc3-n3cnnn3)n2)c(C)c1,-2.2,4,5,0.8,-4.3,i,-2%,0.74,-2
COc1cccc2c1OCC(CN1CCN(Cc3ccccc3)C(CCO)C1)=C2 (centres undefined),-5.5,-3,-4,-8.5,-10,i,·,0.68,·
O=C(C[C@@H]1CC[C@H]2[C@@H](COC[C@@H](O)CN2CCc2ccccc2)O1)N1CCC(Cc2ccccc2)CC1,·,-49,-76,-9.1,5.3,i,·,·,·
COc1cccc(CNC(=O)CCc2nnc3ccc(NCCCN4CCCC4=O)nn23)c1,0.0,5,-3,2.1,0.4,i,·,0.63,-4
CO[C@@H](CN(C)C(=O)c1cnccn1)[C@H](C)CN([C@H](C)CO)S(=O)(=O)c1ccc(F)cc1,·,3,-1,-1.8,0.8,i,·,·,·
O=C(COC(=O)c1ccncc1)Nc1cc(S(=O)(=O)N2CCOCC2)ccc1Cl,3.1,2,9,-3.0,3.8,i,·,0.65,·
CC(C)CNC(=O)C1(C)CCCCCN1C(=O)c1cccnc1 (centres undefined),2.2,6,14,0.4,2.3,i,·,·,·
CC1(C)C2CCC1(CS(=O)(=O)NCc1ccc(Cl)cc1Cl)C(=O)C2 (centres undefined),0.6,-7,-15,2.2,-0.7,i,·,0.62,-2
CCOc1ccc(NC(=S)NC(=O)Cc2ccccc2)cc1,-1.9,11,-17,-2.9,-0.5,i,·,0.71,-3
C=CCc1c(C)nc(SC)nc1Nc1ccc(C(C)=O)cc1,1.2,·,·,·,·,·,4%,0.73,-3
COc1ccc(C(=O)OCC(=O)c2ccccc2)cc1S(=O)(=O)N1CCOCC1,2.8,-12,-6,-2.9,·,·,1%,0.62,-11
# Continuation.
SMILES,HNF4A DNA FP,rRNA inh HTS,rRNA inh HTS OD600,rRNA inh HTS RFP,AF4-AF9 inh,FGF22 binding,Vif TR-FRET,Ecoli growth,ALR H2O2 inh
O=C(CSc1ncn[nH]1)NCc1ccc(Cl)cc1,2.9,0,6,4.2,-3.5,i,-9%,0.69,-4
Cc1nnc(SCC(=O)Nc2ccc3c(c2)OCO3)[nH]c1=O,-0.6,1,5,-1.2,-2.0,i,1%,0.68,36
c1ccc2c(c1)-c1cccc3cncc-2c13,-1.1,·,·,·,1.2,i,-3%,0.62,·
CSc1cccc(NC(=O)c2cnn3ccccc23)c1,1.1,-4,-9,-3.9,2.4,i,2%,0.66,-12
COc1ccc(Br)cc1C(=O)Nc1cccc2ncccc12,4.9,6,3,0.1,-2.9,i,6%,0.67,-1
COc1ccccc1CNC(=O)COC(=O)c1ccc(N2CCCC2=O)cc1,0.5,10,13,0.2,-1.3,i,-9%,0.67,·
CNC(=O)c1c(NC(=O)c2ccc(S(=O)(=O)N3CCCCC3C)cc2)sc2c1CCN(C)C2 (centres undefined),4.2,-17,-8,3.3,0.1,i,·,0.71,14
O=C(Cn1ccc2cc(S(=O)(=O)N3CCCC3)ccc21)NCCc1ccccc1,4.4,-3,-8,2.0,-4.8,i,·,0.69,7
COc1ccc(C2c3[nH]c4ccccc4c3CCN2CCCn2cccn2)c(C)c1C (centres undefined),0.5,-41,-68,3.1,7.5,i,10%,0.64,-3
O=C(c1ccc2c(=O)n(CC3CCCO3)c(=S)[nH]c2c1)N1CCN(c2ccccc2)CC1 (centres undefined),1.9,·,·,·,·,·,-4%,0.75,64
COc1ccc2nc(C)cc(SCC(=O)Nc3c(C)cccc3C)c2c1,-1.8,12,11,0.7,-8.0,i,-14%,0.68,·
O=C(C[C@@H]1C=C[C@@H](NC(=O)C2CCC2)[C@@H](CO)O1)NC1CCCCC1,·,-1,3,-1.2,-6.2,i,·,·,·
COCC(=O)N[C@@H]1CC[C@H](CC(=O)NCc2ccccc2OC)O[C@H]1CO,·,2,2,-0.9,-13,i,·,·,·
COc1ccc(S(=O)(=O)N2CCN(C(=O)CNC(=O)c3ccc4c(c3)OCO4)CC2)cc1,3.5,2,3,-0.4,1.7,i,-2%,0.7,-6
Cc1ccccc1C(=O)Nc1cccc(C(=O)Nc2ccccc2C(=O)O)c1,-0.2,-19,-34,-1.4,-0.9,i,·,0.66,56
COc1cc(/C=C2\N=C(C)OC2=O)cc(OC)c1OC,-2.3,-19,-35,-6.3,-7.4,i,·,0.68,5
CCSC1=N/C(=C\c2ccc3c(c2)OCO3)C(=O)S1,-8.3,·,·,·,·,·,18%,0.74,-2
CSc1cccc(NC(=O)c2cc(S(=O)(=O)N3CCCC3)cn2C)c1,2.3,1,8,6.1,4.5,i,·,0.74,-6
Cc1noc(C)c1S(=O)(=O)N(C)C[C@H]1OCCCC[C@@H](C)Oc2ccc(NC(=O)c3ccccc3)cc2C(=O)N([C@@H](C)CO)C[C@H]1C,·,-10,-5,3.3,2.2,i,·,·,·
O=c1c2cccc(Cl)c2nc2n1Cc1ccccc1-2,-1.1,14,2,-1.4,-5.6,i,-14%,0.67,1
CC(C)NC(=O)Nc1ccc2c(c1)CC(=O)N([C@@H](C)CO)C[C@@H](C)[C@H](CN(C)Cc1ccc(C(F)(F)F)cc1)O2,·,2,-35,-0.1,5.0,i,·,·,·
CCN(CC)C(=O)CC1(c2ccccc2OC)CCOC(C(C)C)C1 (centres undefined),0.6,·,·,·,·,·,4%,0.73,-6
CN(CC(=O)OCC(=O)NCc1ccccc1)S(=O)(=O)c1ccc(Cl)cc1,1.4,·,·,·,·,·,-8%,0.63,-3
C[C@H](CO)N1C[C@H](C)[C@H](CN(C)C(=O)Nc2ccccc2)OCCCC[C@H](C)Oc2ccc(NC(=O)Nc3ccccc3)cc2C1=O,·,1,2,-0.9,-4.2,i,·,·,·
COCCn1c(SCC(=O)Nc2nnc(C)s2)nnc1-c1ccoc1C,-1.8,6,3,-6.3,-1.9,i,-5%,0.67,·
# Later entries:
SMILES,HNF4A DNA FP,rRNA inh HTS,rRNA inh HTS OD600,rRNA inh HTS RFP,AF4-AF9 inh,FGF22 binding,Vif TR-FRET,Ecoli growth,ALR H2O2 inh
CC(=O)c1ccc(S(=O)(=O)N2CCN(C(=O)CSC(=S)N3CCCC3)CC2)cc1,0.9,4,7,1.0,1.3,i,-2%,0.68,·
CCOC(=O)N1CCN(S(=O)(=O)c2c(C(=O)N3CCCCC3)c(C)n(C)c2C)CC1,1.6,5,13,1.0,0.7,i,·,0.62,3
CN1C(=O)c2cc(NC(=O)c3ccc(C(F)(F)F)cc3)ccc2OC[C@@H]2O[C@H](CC(=O)O)CC[C@H]21,·,1,4,-0.3,-1.8,i,·,·,·
NC(=O)c1ccc(NC(=O)CCc2nc3sc4c(c3c(=O)[nH]2)CCCC4)cc1,5.4,4,10,-1.3,-1.0,i,-1%,0.7,16
COc1cccc(NC(=O)CSc2nc(C)cs2)c1,-1.9,·,·,·,·,·,-5%,0.76,-1
CC1CCN(C(=O)CSc2nnc(-c3ccccc3F)o2)CC1,-1.4,-6,-1,-1.2,-0.5,i,·,0.69,-15
CC(=O)n1c(C=Nc2ccccc2)c(O)c2ccccc21,13,13,9,2.9,-9.2,·,·,0.67,11
CCC(CO)Oc1cc(NCc2cccc(C)c2)c2ncn(C(C)C)c2c1 (centres undefined),5.5,8,2,14,-1.8,i,·,0.62,5
O=C(Cc1ccncc1)NCC[C@H]1CC[C@@H](NC(=O)C2CCCCC2)[C@H](CO)O1,·,2,-2,-5.0,-0.3,i,·,·,·
COc1cccc(OCC(=O)NNC(=O)C(=O)Nc2ccc(OC)cc2OC)c1,2.4,6,1,0.0,-12,i,·,0.68,25
COc1cccc(S(=O)(=O)N[C@@H]2CC[C@@H](CCn3cc(-c4ccccn4)nn3)O[C@H]2CO)c1,·,0,-5,0.0,-0.6,i,·,·,·
COc1ccc(C(=O)Nc2cccc3c2CCCC3)cc1,-2.3,3,3,-1.7,-2.9,i,·,0.7,·

# Single records, as listed above. Values in the order: HNF4A DNA FP | rRNA inh HTS | rRNA inh HTS OD600 | rRNA inh HTS RFP | AF4-AF9 inh | FGF22 binding | Vif TR-FRET | Ecoli growth | ALR H2O2 inh
# CCOC(=O)N1CCN(S(=O)(=O)c2c(C(=O)N3CCCCC3)c(C)n(C)c2C)CC1 in the list: 1.6 | 5 | 13 | 1.0 | 0.7 | i | · | 0.62 | 3
# CC(=O)n1c(C=Nc2ccccc2)c(O)c2ccccc21 in the list: 13 | 13 | 9 | 2.9 | -9.2 | · | · | 0.67 | 11
# CN1C(=O)c2cc(NC(=O)c3ccc(C(F)(F)F)cc3)ccc2OC[C@@H]2O[C@H](CC(=O)O)CC[C@H]21 in the list: · | 1 | 4 | -0.3 | -1.8 | i | · | · | ·
# COc1ccc(C(=O)Nc2cccc3c2CCCC3)cc1 in the list: -2.3 | 3 | 3 | -1.7 | -2.9 | i | · | 0.7 | ·
# CC1CCN(C(=O)CSc2nnc(-c3ccccc3F)o2)CC1 in the list: -1.4 | -6 | -1 | -1.2 | -0.5 | i | · | 0.69 | -15

# Bioassay records from PubChem BioAssay.
